# NPYLR7 ag – activates Aedes aegypti NPYLR7 receptor; HEK293T NPYLR7/Galpha15, GCaMP6s calcium fluorescence; activation, % at 10 µM; 270,000 tested, 0.15% active; in the data active = activation above about 40%;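 note: 0% = vehicle and 100% = reference agonist at the receptor; some compounds past the cut are filed as inactive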
# NPYLR7 ag max-min – further read-out of NPYLR7 ag, marked with its call; activation, %; measured here: Max-Min RFU normalised activation; some inactives read as strong as hits;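 span of the calcium signal over five minutes; 0% = vehicle and 100% = native peptide agonist; compound fluorescence can raise it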
# Numbers without * were called inactive; & = joins results of further samples. These rows are one share of the data. The share of hits here may be higher or lower than overall.
# Order of results – NPYLR7 ag, NPYLR7 ag max-min
> COCCCN(Cc1ccc(F)cc1)Cc1ccc(C(C)(C)O)o1
  7, 16
> O=C1CCC(C(=O)N2CCC(CCn3cccn3)CC2)CN1Cc1ccccn1 (stereo not drawn)
  20&2, 7&-1
> Cc1occc1C(=O)N1CCN(C(=O)NC(C)c2cccc(F)c2)CC1 (stereo not drawn)
  1, -1
> COc1cc2cc(C(=O)O)n(C)c2cc1OC
  -6, 6
> CC(Sc1nnc2ccccn12)C(=O)Nc1cc(Cl)cc(Cl)c1 (stereo not drawn)
  -8, -8
> O=C(O)c1ccnc(-c2ccnc(N3CCN(Cc4ccccc4)CC3)n2)c1
  5, 3
> CCn1nccc1C(=O)Nc1sccc1C(=O)NC
  1, 4
> NS(=O)(=O)c1cccc(NC(=O)CCC(=O)c2cccs2)c1
  3, 0
> O=C(NNc1nc(-c2ccccc2)c2cc(Br)ccc2n1)c1ccc(Br)cc1
  -5, -8
> OCC1(O)CCN(Cc2noc(-c3ccccc3)n2)CC1
  -2, -7

# Order of results – NPYLR7 ag, NPYLR7 ag max-min
> CNc1cncc(-c2ccc(C(=O)OC)c(OC)c2)n1
  0, 1
> COc1ccc(C(=O)N2C[C@H]3CC=CC[C@H]3C2)cc1N1CCOCC1
  17, 7
> COc1ccc(Cl)cc1NC(=O)Cc1csc(-n2cccc2)n1
  1, 1
> O=C(Nc1nccs1)c1cc(Br)ccc1O
  -11, -11
> CN1c2ccccc2C(=O)NC1C1=CCC2CC1C2(C)C (stereo not drawn)
  12, 5
> CCOc1ccc(NC(=O)CC2S/C(=N/N=C\C=C\c3ccccc3)NC2=O)cc1 (stereo not drawn)
  9, 7
> COCCNC(=O)C1CCCN(C2CCN(C(=O)c3c(C)noc3C)CC2)C1 (stereo not drawn)
  10, 4
> COc1ccc(C(=O)N2CCCCC2)cc1S(=O)(=O)N1CCOCC1
  -4, -12
> Cc1cc(C(=O)N(Cc2ccco2)c2nc3ccc(F)cc3s2)on1
  2, 2
> CN1C(=O)c2cccc3c(N4CCCCC4)ccc(c23)C1=O
  3, -3

# Order of results – NPYLR7 ag, NPYLR7 ag max-min
> Cc1c(C(=O)NCc2cccc(Cl)c2)sc(=O)n1Cc1ccc(S(=O)(=O)N(C)C)cc1
  16, 11
> CC(SC12CC3CC(CC(C3)C1)C2)C(=O)Nc1cccc(F)c1 (stereo not drawn)
  5, 5
> Oc1cc(CCC2CCCCN2)cc(-c2ccncc2)c1 (stereo not drawn)
  8, 8
> CC(NC(=O)c1ccc(-c2cccc(Cl)c2)s1)c1ccc(Br)cc1 (stereo not drawn)
  -1, 4
> COc1ccc(OC)c(C2CCCN2CC(=O)NC(C)c2ccccc2)c1 (stereo not drawn)
  8, 9
> COc1cccc(CSc2nnc(C(C)NC(=O)c3ccc([N+](=O)[O-])cc3)n2-c2ccc([N+](=O)[O-])cc2)c1 (stereo not drawn)
  -1, 12
> CCN1CCN(C2CCN(C(=O)Nc3ccc(OC)cc3)C2)CC1 (stereo not drawn)
  -22, -24
> Cc1ccc(Oc2cc(C(F)(F)F)nc(SCc3ccccc3Cl)n2)cc1C
  6, 22
> Fc1ccc(-c2cc3ncnc(SCC4CCCO4)c3s2)cc1 (stereo not drawn)
  1, 1
> O=c1ccc(-c2cccs2)nn1CCCNS(=O)(=O)c1cccc(C(F)(F)F)c1
  -1, -4

# Order of results – NPYLR7 ag, NPYLR7 ag max-min
> CCOc1nc(-c2cccc(C(F)(F)F)c2)n(-c2ccc(NC(=O)c3c(OC)cccc3OC)cc2)n1
  10, 11
> CN(Cc1ncc[nH]1)C(=O)c1nc2ccccc2s1
  32, 16
> O=C(NCc1ccccn1)C1(Oc2cccc3ncccc23)CCNCC1
  24, 11
> CCSc1nc(N2CCOCC2)c2cnn(CCNC(=O)C3CC3)c2n1
  0, -1
> O=C(NCCO)c1csc(-c2cc3ccccc3[nH]2)n1
  7, 6
> CCN1CCCC1CNC(=O)C(C)n1ncn2cccc2c1=O (stereo not drawn)
  4, 2
> Cc1nc(-c2ccc(Cl)cc2)sc1C(=O)N1CC(C)OC(C)C1 (stereo not drawn)
  1, 0
> CN1CCC(N(C)C(=S)NCc2ccc(F)cc2)CC1
  -1, -8
> CN(Cc1ccc(Cl)s1)C(=O)Cn1cnc2ccccc21
  7, 6
> C=CCn1c(=C(C#N)C(=O)NCCN2CCOCC2)sc(=Cc2ccsc2)c1=O
  -5, -12

# Part of the list above in another layout:
CN(Cc1ccc(Cl)s1)C(=O)Cn1cnc2ccccc21
  NPYLR7 ag: 7
  NPYLR7 ag max-min: 6
CCOc1nc(-c2cccc(C(F)(F)F)c2)n(-c2ccc(NC(=O)c3c(OC)cccc3OC)cc2)n1
  NPYLR7 ag: 10
  NPYLR7 ag max-min: 11
C=CCn1c(=C(C#N)C(=O)NCCN2CCOCC2)sc(=Cc2ccsc2)c1=O
  NPYLR7 ag: -5
  NPYLR7 ag max-min: -12
CN(Cc1ncc[nH]1)C(=O)c1nc2ccccc2s1
  NPYLR7 ag: 32
  NPYLR7 ag max-min: 16

# More results:
# Order of results – NPYLR7 ag, NPYLR7 ag max-min
> Cn1ncc(C(=O)N2CCOCC2)c1-c1ccccc1
  13, 11
> Cc1ccsc1-c1nccn1CC1CCCOC1 (stereo not drawn)
  -3, -7
> CC1CC(NC(=O)CC2CSc3nc(C(C)C)cc(=O)n32)CC(C)(C)C1 (stereo not drawn)
  -1, -1
> CC(CCc1ccc(F)c(F)c1)NC(=O)c1nccnc1C(N)=O (stereo not drawn)
  1, -4
> c1ccc(-c2n[nH]c(Cn3cnc(-c4ccccc4)c3-c3cnc[nH]3)n2)cc1
  1, -1
> O=S(=O)(NCC1(c2ccccc2)CC1)c1ccc(F)c(F)c1F
  -1, -3
> COc1cccc(Nc2ccc3c(-c4ccccc4)noc3n2)c1OC
  3, 3
> N#Cc1cccc(NC(=O)CN2NS(=O)(=O)c3ccccc3C2=O)c1
  0, -1
> CC(C)c1ccc(C(=O)Cn2nc(-c3ccco3)c3sc(N4CCOCC4)nc3c2=O)cc1
  -1, -5
> N#C/C(=C\c1ccc(O)c(O)c1)C(=O)NCCCNC(=O)/C(C#N)=C/c1ccc(O)c(O)c1
  4, -40

# Order of results – NPYLR7 ag, NPYLR7 ag max-min
> Cc1nn(CC(=O)C23CC4CC(CC(C4)C2)C3)c(=O)c(C#N)c1C
  -5, -8
> Cc1nn(Cc2cccc(C(F)(F)F)c2)c(=O)c2c1cnn2-c1ccccc1
  -6, -5
> CC1(C(=O)Nc2ccc3nc[nH]c3c2)CCN1C(=O)C1(c2ccccc2)CCCC1 (stereo not drawn)
  -4, 5
> CCN(Cc1ccccc1F)Cc1nc[nH]c1C
  8, 7
> COc1cc2c(cc1OC)C(CNC(=O)c1ccccc1Cl)N(C(=O)NC(C)C)CC2 (stereo not drawn)
  3, 10
> COc1ccc(-c2cn(S(=O)(=O)c3ccccc3OC)nc2N)cc1OC
  -12, -20
> O=C1CC(c2ccc(C(=O)O)cc2)c2c(n(C3CCCCC3)[nH]c2=O)N1 (stereo not drawn)
  -2, -6
> COCCN(Cc1nc(-c2ccc(C(F)(F)F)cc2)no1)C(C)C
  0, -2
> CCc1ccc(CN2CCC3(CCCN(C(=O)CCSC)C3)C2)nc1 (stereo not drawn)
  -1, -10
> O=C(NC(c1ccc2ccccc2n1)c1cccs1)C1CCN(Cc2cccc(C(F)(F)F)c2)CC1 (stereo not drawn)
  2, 6

# Order of results – NPYLR7 ag, NPYLR7 ag max-min
> Cc1[nH]nc(-c2ccc(OCCN3CCOCC3)cc2O)c1-c1ccc(Br)cc1
  1, -3
> Cc1ccc(N2C(=O)CSC2c2cccs2)cc1 (stereo not drawn)
  1&-5, -3&-8
> CNS(=O)(=O)c1cccc(NC(=O)N2CCN(c3oc(C4CC4)nc3C#N)CC2)c1
  -6, -6
> COc1cc(C)ccc1OCc1nc(C(=O)N2CCCC2)cs1
  -5, 1
> COc1ccc(Cl)cc1N1CCC(NC(=O)N2CCCC2)C1 (stereo not drawn)
  -27, -26
> O=C(NCc1cn2c(n1)CCCC2)Nc1cccc(N2CCCC2)c1
  12, 3
> O=C(CN1C(=O)COc2ccccc21)NCc1cccnc1-n1cccn1
  -11, -14
> Cc1c(Cl)cccc1NC(=O)CNc1nn2cc(C(C)(C)C)nc2s1
  -1, -2
> CC(=O)c1ccc(Sc2ccc(Cl)cc2C(=O)O)cc1
  5, 3
> CC(C)N(Cc1cn(-c2ccccc2)nc1-c1ccc2c(c1)OCO2)Cc1nccn1C
  22&-1, 16&-4

# Fetched by structure from above (three):
# Order of results – NPYLR7 ag, NPYLR7 ag max-min
> COc1cc2c(cc1OC)C(CNC(=O)c1ccccc1Cl)N(C(=O)NC(C)C)CC2 (stereo not drawn)
  3, 10
> CC(CCc1ccc(F)c(F)c1)NC(=O)c1nccnc1C(N)=O (stereo not drawn)
  1, -4
> CNS(=O)(=O)c1cccc(NC(=O)N2CCN(c3oc(C4CC4)nc3C#N)CC2)c1
  -6, -6

# Next part
# Order of results – NPYLR7 ag, NPYLR7 ag max-min
> O=C(CCC1CCN(Cc2sc3ccccc3c2Cl)CC1)N1CCOCC1
  24, 10
> CCc1nc2ccc(C(=O)NCC3CCCCC3)cn2c1N(C)Cc1ccc(OC)cc1
  16, 1
> COc1ccccc1/C=C/C=C1/N=C(c2cccc(Cl)c2Cl)OC1=O
  -2, -3
> CC1(C(=O)NS(=O)(=O)c2ccccc2OC(F)(F)F)CCN1C(=O)CC1CCCCC1 (stereo not drawn)
  1, -2
> COc1ccc(OC)c(NC(=O)CC(=O)N2CCCCCC2)c1
  -1, -6
> Cc1nnsc1CNC(=O)CC1CCc2ccccc21 (stereo not drawn)
  -4, -4
> CCCC(=O)Nc1sc2c(c1C(=O)Nc1ccc(OC)cc1)CCCC2
  -11, -14
> O=C1c2ccccc2C(=O)c2cc(CSc3nnc(-c4cc(-c5ccccc5)nc5ccccc45)n3CC3CCCO3)ccc21 (stereo not drawn)
  -8, -13
> CN(C(=O)C1CC12CCCc1ccccc12)c1ccccn1 (stereo not drawn)
  7, 7
> Cc1ccc(NC(=O)c2ccccc2)c(NC(=O)c2c(-c3ccccc3Cl)noc2C)c1
  -5, -13

# Order of results – NPYLR7 ag, NPYLR7 ag max-min
> O=C(Nc1ccccc1)N1CCN(c2nc(-c3ccccc3)ns2)CC1
  3, -4
> O=C(CSCc1cccs1)Nc1cn[nH]c1
  13, 11
> FC(F)(F)c1cccc(N2CCN(C3CCCN(Cc4ccccc4)C3)CC2)c1 (stereo not drawn)
  18, 14
> COc1cccc(NC(=O)C2(C)CCN2CCc2ccccc2)c1 (stereo not drawn)
  10, 2
> Cc1ccc(Cc2nc(N3CCN(C(=O)N(C)C)CC3)c3c(-c4cccnc4)noc3n2)cc1
  14, 2
> CC(C)N(CC(=O)N(Cc1ccccc1)Cc1cccn1Cc1ccc(F)cc1)C(=O)c1cccc(F)c1
  1, 17
> Cc1nonc1C1CCCN1S(=O)(=O)NCc1ccccc1 (stereo not drawn)
  -2, -4
> CC(C)N(CC(=O)N(Cc1ccc(F)cc1)Cc1ccco1)C(=O)C12CC3CC(CC(C3)C1)C2
  -6, 4
> CC(C)(C)c1cc2nc(C(=O)N3CCOCC3)cc(-c3cccc(F)c3)n2n1
  2, 13
> Cc1ccccc1CO[C@]1(C(=O)NCC2CCCO2)CC(OCc2cccc(C(F)(F)F)c2)[C@H](O)[C@H](O)C1 (stereo partly drawn)
  -6, -10

# Order of results – NPYLR7 ag, NPYLR7 ag max-min
> O=C(Nc1nc(CCC(=O)N2CCN(c3ncccn3)CC2)cs1)c1ccc(=O)[nH]c1
  -5, -10
> CCOC(=O)c1ccc(N2CCN(C3CCOCC3)CC2)nc1
  10, 5
> O=C(c1cn(-c2ccccc2)nn1)N1CCN(C(=O)c2cccs2)CC1
  3, 3
> COc1cccc(C2C(C(=O)c3ccc(C)o3)=C(O)C(=O)N2CCCN(C)C)c1 (stereo not drawn)
  2, -1
> COc1ccc2oc(=O)c(-c3nnc(-c4ccccc4OC)o3)cc2c1
  14, 7
> COCCN(CC(=O)Nc1nc(CC(=O)N2CCC(n3c(=O)[nH]c4ccccc43)CC2)cs1)C(=O)c1ccc(Cl)cc1
  -6, 3
> Cc1ccc(C2=NOC(C(=O)NC(Cc3ccccc3)C(=O)NCC3CCCO3)C2)cc1 (stereo not drawn)
  5, 7
> COc1ccc(NC(=O)CCC2CCCN(C(=O)c3csc4c3CCCC4)C2)c(C)c1 (stereo not drawn)
  7, 4
> Cc1nc2cc(OCc3cc(C(=O)N4C[C@H]5CC[C@H]4C5)no3)ccc2s1
  3, 1
> O=C(NC1CCCC1)c1ccc(OC2CCN(C(=O)C(=O)c3ccco3)CC2)c(Cl)c1
  -2, -3

# Order of results – NPYLR7 ag, NPYLR7 ag max-min
> CCN(CC)CCCNC(=O)Cn1nc([N+](=O)[O-])c(Br)c1C
  -10, -19
> Cc1cc(Nc2ccc3c(c2)OCO3)c2ccc(C(F)(F)F)cc2n1
  -4, -7
> CCOC(=O)c1ccc(NC(=O)c2sc(NC(=O)c3ccc(F)cc3)c(C(=O)OCC)c2C)cc1
  10, 7
> O=S(=O)(Nc1nc2ccccc2nc1-[n+]1ccccc1)c1ccc(F)cc1
  3, 2
> CCc1nc2ccc(C(=O)Nc3ccc(OC)c(OC)c3)cn2c1N(C=O)CCC(C)C
  -2, -6
> Cc1ccc(-c2nc(OCC(C)C)nn2-c2ccc(NC(=O)/C=C/c3ccccc3)cc2)cc1
  17, 20
> Cc1ccc(NC(=O)c2c(N)c(C(=O)c3ccccc3)n3ccccc23)cc1
  -3, -6
> CC1CC2(C)CC(C)C1(COC(=O)Nc1ccccc1)CO2 (stereo not drawn)
  2, 1
> COCCNC(=O)C(NC(=O)c1ccccc1F)C1CCN(C(=O)c2ccccc2OC)CC1 (stereo not drawn)
  7, 7
> COc1ccc(C(=O)N(Cc2ccc(F)cc2)Cc2cc(NC(=O)c3ccco3)ccc2N(C)C)cc1
  -3, -1

# Order of results – NPYLR7 ag, NPYLR7 ag max-min
> O=C(NCCCN1CCCCC1)c1ccc(-c2ccc(Cl)cc2)o1
  13, 10
> O=C(CSCc1ccccc1Cl)NCc1nc(-c2cccnc2)no1
  -2, 1
> Cc1noc(OCc2c(C)noc2C)n1
  5, 5
> C=CCn1c(=O)c2c(nc3n(-c4cccc(O)c4)c(C)cn23)n(C)c1=O
  2, -4
> Cc1cccnc1NC(=O)c1ccc(Br)o1
  -4, -5

# Source: PubChem BioAssay
